Screens: PubChem, National Center for Advancing Translational Sciences (NCATS)
Menin MLL FP FL: qHTS Assay for Inhibitors Targeting the Menin-MLL Interaction in MLL Related Leukemias: Competition With Fluorescein Labeled MLL-derived Peptide. Fluorescence polarization, fluorescein-MLL peptide displacement from menin. FP activity change, % at 61.4 µM. 290,000 tested, under 10 active; inconclusive = falling polarisation curve, or a change in total fluorescence; inactive = total fluorescence flat and polarisation flat or rising; no compound was filed as active; the % refers to the polarisation; negative = inhibition;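 further: % of control where 0% means no effect; inhibitors lower the polarisation; unlabelled MLL peptide was the positive control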
Sfp inh: qHTS Assay for Inhibitors of Bacillus subtilis Sfp phosphopantetheinyl transferase (PPTase); Biochemical Sfp PPTase activity, qHTS; Potency, µM, for the others: max response, negative = inhibition, actives largely listed as inhibitors; 310,000 tested, 3.5% active; AID 1490, 2009; active means well fitted inhibition curve with a large enough effect; inconclusive means small, poorly fitted or top-dose-only effect, or another doubt; inactive means no such curve, though single readings can be large or run the other way;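 further: the enzyme is Sfp with the accession as filed and its product quenches rhodamine fluorescence; potency means the concentration at half of the fitted maximal effect; 0% = enzyme reaction without inhibitor and -100% = no enzyme wells; top concentration of the series not given in the record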
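Sfp 15 nM + cpd, 15 min RT; start w/ rhodamine-CoA 5 uM, BHQ-2-YbbR 12.5 uM (final); 50 mM Hepes pH 7.6, 10 mM MgCl2, 0.01% NP-40, 0.01% BSA; read 525/598 nm at 0 and 30 min.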
CtBP-E1A blk: qHTS Assay for Inhibitors of the CtBP/E1A Interaction. AlphaScreen GST-E1A/His-CtBP binding, 1536-well; active compounds read low; control for the full effect not named in the record. activity change, % (concentration not given with the values). AID 651724, 2012. 340,000 tested, 0.49% active. CtBP / adenovirus E1A interaction (AlphaScreen); in the data active means activity change below about -65%; inconclusive means about -30% to -65%; inactive means above about -30%; further: on the % scale 0 is the no-effect control and ±100 the full control effect
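In 5 uL wells, 23 nL compound meets equimolar GST-E1A and His-CtBP (5X stock 125 nM each) for 2 h, 37 °C. Beads (5X, 50 ug/mL) then 1 h, 37 °C, dark.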
ClpP mod: qHTS Assay for Activators of ClpP; Potency, µM (doses to about 57.5 µM), inactives show at the top dose activity change, negative = active; purified B. subtilis ClpP, FRET peptide cleavage, 20 min; 340,000 tested, 1.9% active; active = well fitted falling curve with a large enough effect; inconclusive = small, poorly fitted or top-dose-only effect; inactive = no such curve, though single readings can be large or run the other way; further: potency means the concentration at half of the fitted maximal effect; the source files actives as falling curves though it sought activators and does not explain the sign; nearly all actives have a fitted effect of over 65% in size; many hits overshoot -100%
Target sequence (P80244 whole entry, looked up): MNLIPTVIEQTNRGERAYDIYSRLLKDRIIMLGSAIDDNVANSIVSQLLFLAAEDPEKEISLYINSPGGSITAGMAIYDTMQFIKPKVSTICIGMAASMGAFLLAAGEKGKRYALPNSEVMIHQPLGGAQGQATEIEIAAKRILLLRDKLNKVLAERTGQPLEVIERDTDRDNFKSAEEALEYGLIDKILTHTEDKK
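Buffer: 100 mM Tris/HCl pH8, 100 mM KCl, 0.05% low protease BSA, 2.5% glycerol, 0.01% Tween-20. ClpP 10 microg/mL final; 20 min RT; delta FRET normalized to ADEP and DMSO controls.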
gsp ag: qHTS for Agonist of gsp, the Etiologic Mutation Responsible for Fibrous Dysplasia/McCune-Albright Syndrome: qHTS | 340,000 tested, 0.13% active | Potency, µM (doses to about 76.9 µM), without a hit: at the top dose activation (cAMP increase), actives largely listed as activators | gsp mutant cells, cAMP HTRF, 30 min; control for the full effect not named in the record; active = well fitted activation curve with a large enough effect; inconclusive = small, poorly fitted or top-dose-only effect, or another doubt; inactive = no such curve, though single readings can be large or run the other way; cell line not stated here;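 further: phosphodiesterase inhibitor Ro 20-1724 added with compounds to block cAMP breakdown; potency means the concentration at half of the fitted maximal effect; nearly all actives have a fitted effect of over 60% in size; about a fifth of the inactives were tested at one dose only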
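Cells in DMEM/10% FBS with G418 were pretreated with compounds in DMSO plus […] (300 uM stock) for 30 min at 37C. cAMP was measured by HTRF (cAMP-d2 plus anti-cAMP antibody-K) after 30 min at room temperature.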
gsp antag: qHTS for Antagonists of gsp, the Etiologic Mutation Responsible for Fibrous Dysplasia/McCune-Albright Syndrome: qHTS | 340,000 tested, 0.4% active | Potency, µM (doses to about 76.9 µM), for inactives: at the highest dose activity change, negative = inhibition, most hits filed as inhibitors | gsp-mutant cells, cAMP HTRF, 30 min; control for the full effect not named in the record | AID 624288, 2012; active = falling curve of any shape with a large fitted effect; inconclusive = falling curve, mostly with a smaller effect; inactive = flat or rising curve; cell line not stated here;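 further: intracellular cAMP measured with PDE inhibitor Ro 20-1724 present during compound exposure; potency means the concentration at half of the fitted maximal effect; on the % scale 0 is the no-effect control and ±100 the full control effect; nearly all actives have a fitted effect of over 65% in size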
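G418-selected cells were plated in DMEM/10% FBS for 16-24 h at 37C, then treated with compounds plus the PDE inhibitor […] (300 uM solution added) for 30 min at 37C. Intracellular cAMP was measured by HTRF after 30 min lysis at room temperature.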
TRPV1 PAM: HTS Assay for Compounds that Act as Potentiators of the Vanilloid Receptor 1 | Transient receptor potential cation channel subfamily V member 1 (Homo sapiens), Q8NER1 | TRPV1-expressing cells, Fluo-8 calcium influx, capsaicin EC20 potentiation; host cell line not named in the record; control for the full effect not named in the record | potentiation, % at 8.33 µM | 320,000 tested, 0.02% active; active means potentiation above 80%; inconclusive means 30% to 80%; inactive means below 30%; further: 0% is about no effect
Target sequence (Q8NER1 whole entry, looked up): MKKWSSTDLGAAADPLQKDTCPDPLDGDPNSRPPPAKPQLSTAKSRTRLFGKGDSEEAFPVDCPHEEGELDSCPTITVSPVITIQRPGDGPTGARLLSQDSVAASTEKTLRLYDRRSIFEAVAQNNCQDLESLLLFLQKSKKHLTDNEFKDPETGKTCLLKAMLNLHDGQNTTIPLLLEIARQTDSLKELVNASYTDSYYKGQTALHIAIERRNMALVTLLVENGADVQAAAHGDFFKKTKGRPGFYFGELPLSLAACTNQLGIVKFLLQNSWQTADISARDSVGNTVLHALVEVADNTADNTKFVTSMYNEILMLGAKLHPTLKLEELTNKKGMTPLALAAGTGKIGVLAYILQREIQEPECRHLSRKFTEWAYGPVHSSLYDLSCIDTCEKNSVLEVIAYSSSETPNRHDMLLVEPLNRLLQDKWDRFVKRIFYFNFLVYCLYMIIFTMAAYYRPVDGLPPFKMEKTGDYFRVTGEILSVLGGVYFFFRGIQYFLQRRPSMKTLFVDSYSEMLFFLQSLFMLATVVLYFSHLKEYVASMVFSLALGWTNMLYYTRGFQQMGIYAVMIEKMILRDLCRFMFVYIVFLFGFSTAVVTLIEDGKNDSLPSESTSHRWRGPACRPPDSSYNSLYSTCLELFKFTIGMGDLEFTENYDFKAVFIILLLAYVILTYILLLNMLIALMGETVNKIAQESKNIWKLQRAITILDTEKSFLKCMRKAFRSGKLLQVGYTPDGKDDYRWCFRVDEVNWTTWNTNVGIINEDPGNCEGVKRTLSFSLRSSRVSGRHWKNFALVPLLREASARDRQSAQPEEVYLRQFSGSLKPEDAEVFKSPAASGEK
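Fluo-8 calcium influx in TRPV1-expressing cells, kinetic read (ex 480/em 520 nm). Compound added and read 3 min for agonist activity, followed by capsaicin at EC20 final and 2 min further read for enhancement.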
The depositor's hits bear a star; ? = inconclusive; / = no result given; [ ] = dose if it differs, or a comment.

SMILES	Menin MLL FP FL	Sfp inh	CtBP-E1A blk	ClpP mod	gsp ag	gsp antag	TRPV1 PAM
CCCn1nc(C(=O)N2CCc3ccccc32)c2ccccc2c1=O	/	/	-2	0.3%	0%	-5%	-11
COC(=O)CNc1c(-c2ccccn2)nc2ccc(Br)cn12	?	28µM*	?	6.1%	-13%	?	17
COc1ccccc1NS(=O)(=O)c1cc(NC(=O)C2CC2)ccc1N1CCOCC1	0.1	-4%	/	/	/	/	8
COc1ccc(OC)c(C2CC(=O)Nc3cc(OC)c(OC)c(OC)c32)c1 (stereo not drawn)	0.9	7%	-7	-0.6%	-19%	0%	-5
CN(c1ccccc1)S(=O)(=O)c1cccc(NC(=O)CCN2C(=O)C3CCCCC3C2=O)c1 (stereo not drawn)	-2.8	13%	17	0.0%	-4%[15.4 µM]	1%	10
Cc1ccccc1N(C(=O)c1csnn1)C(C(=O)NC1CCCC1)c1ccncc1 (stereo not drawn)	/	1%	17	-4.2%	6%[15.4 µM]	-3%	6
CC1CC(C)CN(C(=O)c2ccc(C#N)cc2)C1 (stereo not drawn)	2.9	-29%	6	/	-10%[15.4 µM]	-1%	1
COCCNC(=O)CCc1nc(-c2ccccc2)no1	1.6	18%	1	-7.3%	4%	4%	4
O=C(NCc1nnc(SCC(=O)N2CCOCC2)o1)c1c(F)cccc1F	0.2	11%	-4	1.9%	1%	11%	4
COc1ccccc1C1CC(=O)Oc2cc(C)c(Cl)cc21 (stereo not drawn)	0.5[94.6 µM]	-22%	11	-0.7%	/	-21%	/
CCC(C)(C)NC(=O)C(c1ccc(OC)cc1)N(Cc1ccccc1)C(=O)CCC(=O)Nc1cc(C)on1 (stereo not drawn)	0.8	8%	3	/	-7%	-4%	17
COc1ccc(NC(=O)Cn2nnc(C(=O)NCc3cccc(OC)c3)c2N)cc1	1.3	-16%	2	-0.8%	-57%[inhibitor]	4%	/
Cc1c(O)nc(SC2CC(=O)N(c3cc(Cl)cc(Cl)c3)C2=O)[nH]c1=O (stereo not drawn)	/	/	3	-0.1%	3%[15.4 µM]	-18%	/
CCCCC(CCC(=O)NNC(=O)Cc1ccccc1)C(=O)O (stereo not drawn)	4.3	13%	5	-2.7%	1%	5%	14
Cc1ccc(S(=O)(=O)NCCC(=O)NCCOc2ccccc2)cc1	/	/	8	?	-25%	2%	-46
CCOc1ccc(NS(=O)(=O)N(C)C)cc1	-0.6	21%	4	-0.3%	-10%	2%	8
O=C(Nc1cccc(S(=O)(=O)N2CCCCCC2)c1)c1ccc(Cl)nc1	/	/	?	/	-12%	?	/
O=C(CNC(=O)Cc1cccc2ccccc12)NCc1ccccc1F	-3.1	16%	1	/	3%[15.4 µM]	3%	5
COC(=O)N1C(=O)[C@@](c2ccc(OC)cc2)(C(C)C)N1C(=O)OC	?	9%	-21	-1.6%	/	0%	-7
COc1ccccc1-c1c(C)[nH]n2c(=O)c(Cc3ccccc3)c(C)nc12	6.9	8%	-4	-15%	-4%	?	-10
C[C@]12C(=O)N(c3ccccc3)C(=O)N1[C@@H]1c3ccccc3OC[C@@H]1[C@H]2c1ccccc1	-1.7	6%	-17	-0.4%	-1%	-4%	-20
O=C1OCCC1=Cc1ccccc1	/	/	12	/	?	7%	/
COc1ccc(CNC(=O)COC(=O)c2cccs2)cc1	-1.4	9%	-1	/	8%[15.4 µM]	1%	5
O=C(NC1CCN(Cc2ccccc2)CC1)c1ccc(Oc2cc(Cl)cc(Cl)c2)o1	0.7	-2%	/	0.3%	27%	-4%	14
CCOC(=O)C1=C(c2ccccc2)NC(=O)NC1c1ccc(OC)cc1OC (stereo not drawn)	5.5	10%	2	/	13%	10%	6
CSCCNC(=O)Nc1c(-c2c(Cl)cccc2Cl)noc1C	4.7	4%	/	1.3%	11%	-2%	0
Cc1ccc(C(=O)COC(=O)CCN2C(=O)C3C4CCC(C4)C3C2=O)cc1C (stereo not drawn)	1.3	7%	13	-15%	-26%	-17%	4
CCOC(=O)c1cnn(-c2cc(C(C)(C)C)nc3c(-c4ccccc4)c(C)nn23)c1N	1.3	6%	-12	-0.5%	13%	2%	?
CCn1c(SCC(=O)Nc2ccc(OC)cc2)nc2nc3c(cc2c1=O)CCCC3	4.0	6%	-4	/	-6%[15.4 µM]	-31%	7
Cc1nn(C)c(=O)c(N)c1-c1cc(-c2ccc(Cl)c(Cl)c2)n[nH]1	3.4	8%	-4	/	39%	-1%	11
C[C@@]12C(=O)Nc3cc(Cl)ccc3C(=O)N1[C@H]1c3cc(Cl)ccc3OC[C@@H]1[C@@H]2c1ccccc1	/	/	-4	-6.7%	/	-2%	/
COc1cccc(-c2cc(C(=O)NCCCn3ccnc3)no2)c1	-0.6	11%	-12	-3.6%	-16%	-1%	-1
CCOC(=O)c1[nH]c(C)c(/C(O)=C2\C(=O)C(=O)N(CCCN(C)C)C2c2ccncc2)c1C (stereo not drawn)	-1.6	10%	/	/	/	/	-8
Cc1ccc(S(=O)(=O)c2cc(O)ccc2O)cc1C	0.3	-17%	/	-0.2%	?	-5%	17
O=C(NCCc1ccccc1)c1ccc(Cl)cc1[N+](=O)[O-]	-5.5	-1%	/	0.0%	-2%	5%	-21
Cn1ncc(Cl)c1C(=O)N/N=C/c1cc2c(cc1[N+](=O)[O-])OCO2	-6.9	-14%	-16	-2.4%	23%	2%	22
O=C1CCCN1c1ccc(S(=O)(=O)Nc2ccc3c(c2)OCCO3)cc1	-1.8	7%	10	-1.0%	-32%[inhibitor]	-2%	9
CN(c1ccccc1)S(=O)(=O)c1cccc(C(=O)N2CCCCCC2)c1	/	/	0	/	-24%[15.4 µM]	-1%	-20
COc1ccc(/C=N/NC(=O)c2c(C)n(C)c3ccc(OC)cc23)c(OC)c1	7.3	5%	4	0.9%	-2%[15.4 µM]	-25%	-4
Cn1ccsc1=NC(=O)c1cccc(OC(F)F)c1	6.4	4%	12	/	4%	-8%	-19
Cc1cc(C(=O)NCCc2ccc(S(N)(=O)=O)cc2)no1	4.3	11%	3	/	-68%[inhibitor]	6%	-4
CCCC(=O)Nc1c2c(nn1-c1cccc(Cl)c1)CS(=O)(=O)C2	0.5	14%	7	0.5%	?	11%	-1
CCC1Oc2ccccc2N(CC(=O)Nc2ccccc2OC)C1=O (stereo not drawn)	0.7	8%	-3	-0.6%	-17%	-4%	5
CC(C)(C)OC(=O)N1CCC(C(=O)N[C@@H](Cc2ccccc2)C(=O)O)CC1	0.8	9%	4	2.8%	-8%	-8%	1
COc1ccc(F)cc1S(=O)(=O)NC1CC(C)(C)NC(C)(C)C1	3.1	16%	10	-2.2%	-15%	18%	-3
CCCc1c(C(=O)Nc2ccc(F)cc2)cnn1-c1ccccc1	5.5	8%	11	/	-15%[15.4 µM]	-9%	-25
Cc1cc(NC(=O)C2CCN(S(=O)(=O)c3cccs3)CC2)no1	5.5	15%	11	-0.4%	14%	4%	-1
Cc1ccc(S(=O)(=O)N2CCOCC2)cc1C(=O)N1CC(C)CC(C)C1 (stereo not drawn)	/	/	-4	/	-22%	-2%	/
Cc1ccc(NC(=O)CC2C(=O)N(Cc3ccccc3)C(=S)N2NC(=O)c2cccc(F)c2)c(C)c1 (stereo not drawn)	-1.3	-12%	-6	-1.3%	6%	?	-5
COc1cccc(N(C(=O)c2snc(C(N)=O)c2N)C(C(=O)NCC2CCCO2)c2ccc(C)o2)c1 (stereo not drawn)	2.2	10%	-4	/	-4%[15.4 µM]	-13%	18
Next records
SMILES	Menin MLL FP FL	Sfp inh	CtBP-E1A blk	ClpP mod	gsp ag	gsp antag	TRPV1 PAM
Cc1cc(C)c(O)c(NC(=S)NC(=O)Cc2ccccc2)c1	2.5	8%	-3	1.2%	-1%[15.4 µM]	-7%	5
O=C(COC(=O)c1ccco1)NCc1ccco1	-1.3	-4%	20	2.7%	19%	10%	10
O=C(Nc1ccc(NC(=O)c2ccco2)nc1)c1cccc(F)c1	2.5	-2%	-13	/	-3%	-1%	1
CCOC(=O)c1ccccc1NS(=O)(=O)c1c(C)nc2sccn2c1=O	0.8	14%	8	-2.2%	7%	-7%	-8
CCC1CSC(Nc2ccc(C(=O)/C=C/c3cccc(C)c3)cc2)=N1 (stereo not drawn)	0.2	-1%	3	-2.2%	-4%	-1%	14
CC(C)N(Cc1nccn1C)C(=O)c1cc(COc2ccc3ncccc3c2)on1	3.2	-1%	8	/	0%[15.4 µM]	-12%	9
CCOC(=O)CN(C(=O)c1snc(C(N)=O)c1N)C(C(=O)NC1CCCCC1)c1ccc(F)cc1 (stereo not drawn)	-3.5	4%	-19	?	1%	2%	-16
O=C(NCC1(c2ccccc2)CCOCC1)c1ccc(Br)o1	-1.2	8%	5	-1.7%	-11%	-4%	-16
CCCCn1c(N)c(N(CCC(C)C)C(=O)c2oc3ccc(OCC)cc3c2C)c(=O)[nH]c1=O	/	/	9	-14%	-8%	-6%	-10
Cc1ccc(S(=O)(=O)NC(C(=O)O)c2ccccc2)cc1 (stereo not drawn)	-2.0	13%	21	/	-2%[15.4 µM]	-1%	25
CCC(C)N=Cc1c(NCc2ccco2)nc2c(C)cccn2c1=O (stereo not drawn)	-0.5	-5%	0	-9.2%	2%	15%	0
